Rango dissoc inh: inhibitors of RanGTP-induced Rango-importin beta complex dissociation; hit rate 0.071% among 340,000; Potency, µM (highest dose often 46.1 µM), inactives show at the highest dose activity change, negative = inhibition; Biochemical FRET Rango-importin beta, RanGTP-induced dissociation; O95149+P62826; active means falling FRET ratio curve, often poorly fitted, with flat reads before Ran was added; inconclusive means other falling curves, or compound fluorescence or quenching; inactive means flat or rising ratio curve;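 also: potency is read from the fitted curve at half-maximal effect; % of control where 0% means no effect; nearly all actives have a fitted effect of over 45% in size; -100% = wells without RanGTP and RCC1; the record marks most hits as doubtful in a second field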
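Rango FRET biosensor (snurportin-1 IBB flanked by N-terminal EYFP and C-terminal CFP10) at 0.1 uM, with 0.25 uM importin beta in PBS, 1mM DTT, 0.02% Tween-20, 0.1% BSA. 0.6 uM Ran, 2mM GTP and 0.2 uM RCC1 were then added for 45 min at room temperature. Inhibition read as loss of FRET rise.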
miR-21 FLuc: miR-21 reporter, rising signal | HeLa miR-21 FLuc reporter, luciferase, 48 h | 340,000 tested, under 10 active | Potency, µM (highest dose often 38.3 µM), for inactives: top-dose reporter change, positive = more light; active = well fitted rising curve with a large enough effect; inconclusive = small, poorly fitted or top-dose-only effect; inactive = no such curve, though single readings can be large or run the other way;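 also: % of control where 0% means no effect; miR-21 action dims this reporter so a rising signal means less miR-21 action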
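Luminescence from a firefly luciferase reporter carrying a miR-21 binding site downstream, stably expressed under a CMV promoter in HeLa cells that make miR-21 endogenously, reports miRNA modulation after 48 h compound exposure up to approximately 40uM final.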
Rango complex inh: inhibitors of Rango-importin beta complex formation; Potency, µM (doses to about 92.2 µM), for the others: at the highest dose inhibition of complex formation; AID 540263; hit rate 0.031% among 340,000; Rango CFP/YFP FRET sensor + importin beta, 45 min; Q14974; active = rising FRET ratio curve, often small or poorly fitted; inconclusive = mostly compound fluorescence or quenching in the first reads; inactive = flat curves in all reads;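 also: potency is read from the fitted curve at half-maximal effect; 0% = DMSO wells and 100% = buffer wells lacking importin beta; nearly all actives have a fitted effect of over 15% in size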
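FRET biosensor (snurportin 1 IBB flanked by EYFP and cerulean), 50 nM, with compound 5 min, then 0.125 microM importin beta in PBS, 1 mM DTT, 0.02% Tween-20, 0.1% BSA. CFP/YFP ratio read after 45 min at room temperature; pre-read flags interference.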
GLA inh pH 4.5: blocks human alpha-galactosidase A at pH 4.5; P06280; activity change, negative = inhibition, % at 105 µM; 230,000 tested, under 10 active; purified enzyme, 4-MU-alpha-Gal fluorescence, pH 4.5; inconclusive = small, poorly fitted or top-dose-only inhibition, or a rising curve; inactive = flat fitted curve, though single readings scatter; no compound was filed as active;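 also: 0% = full activity with enzyme and -100% = basal without enzyme; dose as in the result columns while the protocol names 77 µM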
Target sequence (P06280 whole entry, looked up): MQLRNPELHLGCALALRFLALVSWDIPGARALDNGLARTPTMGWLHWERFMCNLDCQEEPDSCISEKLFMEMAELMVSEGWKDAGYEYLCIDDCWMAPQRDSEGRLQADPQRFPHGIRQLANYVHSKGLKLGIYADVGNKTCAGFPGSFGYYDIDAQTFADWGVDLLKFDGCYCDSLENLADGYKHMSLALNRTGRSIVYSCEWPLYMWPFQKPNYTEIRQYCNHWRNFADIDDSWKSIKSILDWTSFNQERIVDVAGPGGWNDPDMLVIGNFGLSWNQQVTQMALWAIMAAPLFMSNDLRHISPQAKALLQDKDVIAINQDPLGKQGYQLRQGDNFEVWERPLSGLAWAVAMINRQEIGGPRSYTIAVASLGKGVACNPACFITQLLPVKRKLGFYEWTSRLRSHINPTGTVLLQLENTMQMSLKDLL
An asterisk follows results filed as active; ? = inconclusive; / = not tested or not shown. Some of the compounds tested; rates above refer to the full screens.

Below each SMILES: Rango dissoc inh | miR-21 FLuc | Rango complex inh | GLA inh pH 4.5
CCOc1cc(CNCCCN2CCOCC2)cc(Br)c1OCc1ccccc1Cl
  2% | ? | 2.2% | -3
Cc1cc(C)c(OCC(=O)N(C)CC(=O)Nc2ccc(N3CCOCC3)cc2)c(C)c1
  2% | -5% | -2.1% | /
CNc1ccc(/C=C/C(=O)c2ccc(C)cc2)cc1[N+](=O)[O-]
  -2% | 1% | 0.5% | 0
COc1ccc(C(=O)C(OC(=O)c2ccccc2Cl)c2ccccc2)cc1 (stereo unspecified)
  -13% | -75% | -1.1% | 1
N#Cc1cc(-c2cccc(Cl)c2)c[nH]c1=O
  -15% | -3% | 0.7% | -8
COc1cccc(NC(=O)C(C)N2C(=O)c3ccccc3C2=O)c1 (stereo unspecified)
  5% | 0% | 2.1% | /
O=C(Nc1ncccc1O)c1ccc(Oc2ccccc2)cc1
  8% | -50% | -1.5% | /
O=C(CSc1nc2c(sc3ccccc32)c(=O)n1CCO)NCc1ccco1
  -8% | 0% | 2.6% | -17
Cc1ccc2ncccc2c1NC(=S)NC(=O)c1ccccc1
  7% | 14% | -5.9% | -10
COC(=O)CCC(=O)NNC(=O)c1cccc(Br)c1
  -10% | 3% | 0.2% | -3
COc1ccc(OC)c(-c2c[n+](=O)c3c(n2[O-])CCCC3)c1
  -12% | 2% | -4.3% | 2
Cc1ccc(C)c(/C=N/NC(=S)NC(C)C)c1
  1% | -1% | 14% | -1
COc1ccc(Cc2[nH]n3c(=O)cc(C)nc3c2-c2ccccc2)cc1
  8% | 0% | -2.4% | 1
CCC(C)(C)n1nnnc1C(c1ccc(OC)c(OC)c1)N1CCN(c2ccc(F)cc2)CC1 (stereo unspecified)
  8% | -5% | -1.1% | -26
O=C(NCCc1c[nH]c2ccccc12)C(=O)NCC(c1ccco1)N1CCN(c2ccccc2F)CC1 (stereo unspecified)
  22% | 0% | -0.7% | 1
Cc1ccc(S(=O)(=O)Nc2cccnc2)cc1C
  -24% | -3% | 4.9% | /
Cc1cccc(N2CCN(C(=O)CNC(=O)C3CCCCC3)CC2)c1C
  -3% | / | -0.5% | /
CCOc1cccc2sc(N(CCCN(C)C)C(=O)c3ccc(S(=O)(=O)N(C)c4ccccc4)cc3)nc12
  12% | 5% | -1.5% | -19
CC(c1ccccc1)n1c(Br)nc2c1c(=O)[nH]c(=O)n2C (stereo unspecified)
  6% | -7% | -1.2% | /
O=C(NCCc1c[nH]c2ccccc12)C1CCN(Cc2ccc(Br)cc2)CC1
  -7% | 20% | 2.8% | /
COc1cccc(C(=O)NNC(=O)C2CC(C)=C(C)CC2C(=O)O)c1 (stereo unspecified)
  7% | -18% | 0.4% | 3
COC(=O)C1(CCSC)NC(c2ccccc2OC)C2C(=O)N(C)C(=O)C21 (stereo unspecified)
  -13% | -2% | -0.4% | 2
CCCNC(=O)c1ccccc1NC(=O)COc1cccc2c1OC(C)(C)C2
  -9% | / | -0.9% | /
COc1ccc(OC)c(NC(=O)CSc2nnc(C3CCCCC3)n2N)c1
  5% | / | 0.4% | /
CS(=O)(=O)N1CCCC(C(=O)Nc2ccc(F)c(F)c2)C1 (stereo unspecified)
  1% | / | 0.5% | /
CCCOC(=O)CCn1c(=S)oc2ccccc21
  0% | -10% | 2.3% | -3
CN(CCC#N)C(=O)COC(=O)c1ccc(Cl)c(S(=O)(=O)N(C)c2ccccc2)c1
  2% | -3% | -1.3% | -2
COc1ccc(-n2cnnc2SCC(=O)Nc2cccnc2Cl)cc1
  -10% | 1% | 0.9% | 3
C/C(=N\NC(=O)CNC(=O)C1COc2ccccc2O1)c1ccc(Cl)cc1 (stereo unspecified)
  -8% | 0% | 1.4% | -2
CCOC(=O)CNC(=O)c1ccc2c(c1)OCCO2
  2% | -32% | 0.9% | -5
CC1CCCC12NC(=O)NC2=O (stereo unspecified)
  1% | / | 0.1% | /
O=C(CSc1nnc(SCc2ccc(Cl)cc2)s1)N/N=C/c1c[nH]c2ccccc12
  -6% | -5% | 2.9% | 3
Cc1c2c(n3c(nc4ccccc43)c1C#N)N(CCN1CCOCC1)CC2
  ? | -2% | ? | ?
Cc1nc2c(-c3ccc(Cl)cc3)c(C)[nH]n2c(=O)c1Cc1ccccc1
  20% | ? | -6.4% | -13
Cc1cccc(-n2ncc3c(N4CC(C)CC(C)C4)ncnc32)c1 (stereo unspecified)
  -4% | -47% | -3.4% | -4
O=S1(=O)CCOC[C@H](c2ccccc2)N1Cc1cccc(F)c1
  -3% | -4% | -1.2% | /
CN1CCC(N(C)S(=O)(=O)c2ccc(NC(=O)c3cccc(C#N)c3)cc2)CC1
  2% | / | 2.6% | /
COc1cc(Br)cc2cc(C(=O)OC3CCN(C)CC3)c(=O)oc12
  -4% | / | ? | /
O=C(CN1CCCC1=O)NC1CCCc2c1cnn2-c1cc(F)cc(F)c1 (stereo unspecified)
  -5% | -23% | 0.4% | /
CCCCCCCCCS(=O)(=O)N/N=C/c1cccc([N+](=O)[O-])c1
  3% | 4% | 11% | 15
Cc1ccc(-c2n[nH]c(=S)n2/N=C/c2sccc2C)cc1
  5% | -19% | -0.1% | -5
Cc1cccc(C(=O)Nc2ccccc2NC(=O)c2cccc(C)c2)c1
  -6% | 10% | -1.0% | /
CC(CCc1ccccc1)NC(=O)COC(=O)c1ccc([N+](=O)[O-])cc1 (stereo unspecified)
  12% | 4% | -4.1% | /
Cc1cc(C)cc(NC(=S)NCC2CCCO2)c1 (stereo unspecified)
  2% | -4% | 2.8% | 1
O=C(N/N=C/c1ccc([N+](=O)[O-])o1)c1cc2c(ccc3ccccc32)o1
  -16% | 2% | -3.9% | -8
CC(=O)Nc1ccc(C(=O)CSc2nnc(-c3ccc(O)cc3)n2CC2CCCO2)cc1 (stereo unspecified)
  -1% | 0% | 1.3% | 0
CCc1ccc(C(=O)COc2ccc(NC(C)=O)cc2)cc1
  0% | -21% | -1.0% | 3
CCO[C@@H]1OC(C(N)=O)=C[C@H](c2coc3ccccc3c2=O)[C@H]1CCCO
  31% | -7% | -1.2% | -15
O=C(CSc1nnc2ccc(-c3ccc(Br)cc3)nn12)NCC1CCCO1 (stereo unspecified)
  21% | / | -4.3% | /
CNC(=S)N1N=C(c2ccc(C)cc2)CC1c1ccc(OC)cc1 (stereo unspecified)
  13% | -13% | -0.4% | 3
CC(C)Cc1nnc(NC(=O)Nc2ccccc2)s1
  7% | -41% | 3.7% | 6
Cc1ccc(/C=C/c2nnc(-c3ccc(C)cc3)o2)cc1
  -7% | -9% | -3.1% | 3
Cc1ccc(C)c(NC(=S)N2C3CCCC2CC(NC(=O)C2CC2)C3)c1 (stereo unspecified)
  1% | 0% | -0.5% | /
COC(=O)C(NC(=O)CN1C(=O)c2ccccc2C1=O)c1ccc(O)c(OC)c1 (stereo unspecified)
  15% | 0% | -0.2% | /
COc1ccc(CNc2nc3c(c(=O)[nH]c(=O)n3C)n2CCCc2ccccc2)cc1
  8% | -11% | -0.7% | -1
O=C(O)c1ccccc1NS(=O)(=O)c1ccc2ccccc2c1
  21% | -54% | -2.8% | /
CC(=O)Nc1cccc(-c2cnc3ccccc3n2)c1
  0% | -49% | 0.5% | 6
COc1ccc2nc(N=Nc3c(O)ccc4ccccc34)sc2c1
  / | -4% | / | -8
CCOC(=O)Cn1c(=O)oc2cc(S(=O)(=O)NC3CCCc4ccccc43)ccc21 (stereo unspecified)
  -2% | 0% | 0.8% | -1
COc1ccc(C(=O)Nc2ccccc2C(=O)N2CCOCC2)cc1Br
  -7% | -4% | -0.5% | /

Next section:
Below each SMILES: Rango dissoc inh | miR-21 FLuc | Rango complex inh | GLA inh pH 4.5
CS(=O)(=O)N1CCN(c2nc3ccc(Cl)cc3s2)CC1
  13% | -23% | 0.6% | -3
Cc1cc(C(=O)N2CCN(c3ccccn3)CC2)c(C)o1
  -8% | -14% | -2.5% | -3
C=C(C)CN(CC)C(=O)Cn1cnc2c(oc3ccccc32)c1=O
  -5% | -11% | -0.1% | /
CC(=O)Nc1ccc(NC(=O)CSc2ccc3nnc(CCNS(=O)(=O)c4ccc(C)cc4)n3n2)cc1
  4% | -2% | 0.8% | /
CCOc1ccc(NC(=O)NCc2ccc3c(c2)OCO3)cc1
  -12% | -7% | -0.6% | /
COCC(=O)Nc1cc(OC)cc(OC)c1
  18% | -1% | -1.2% | 1
COc1ccc(OCC(=O)OCC(=O)NCC2CCCCC2)cc1
  -13% | / | 0.3% | /
O=C(CN(Cc1ccc(F)cc1)C(=O)CCC(=O)Nc1nccs1)NCc1ccc(F)cc1
  -3% | 8% | -2.9% | /
Cc1ccc(C(=O)CCC(=O)OCC(=O)NNC(=O)c2ccc([N+](=O)[O-])cc2)cc1
  ? | / | -2.4% | /
O=Cc1ccc(-c2cccc(C(=O)O)c2)o1
  -5% | -20% | 0.1% | -1
Cc1cccc2nc(CSc3nc4ccc([N+](=O)[O-])cc4[nH]3)c(Br)n12
  -2% | -4% | -1.1% | -9
Cc1ccc2nsnc2c1S(=O)(=O)N1CCN(C)CC1
  -8% | 2% | -0.8% | /
NC(=O)c1cnn(-c2cccc(Cl)c2)c1N
  1% | -16% | -1.8% | 1
CCOC(=O)CSC1=Nc2ccccc2C2=NC(CC(=O)NCc3ccc4c(c3)OCO4)C(=O)N12 (stereo unspecified)
  10% | 2% | 1.0% | 0
CCOC(=O)C1C2C=CC3(CN(c4ccccc4CC)C(=O)C13)O2 (stereo unspecified)
  1% | / | -0.4% | /
Nc1c(C(=O)c2cccs2)sc2nsc(SCCN3CCCCC3)c12
  ? | -68% | ? | -14
Cc1c(NC(=O)C2(c3ccc(Cl)cc3)CCCC2)c(=O)n(-c2ccccc2)n1C
  -3% | -2% | -5.7% | 4
Cc1c(C(=O)NCc2c(F)cc(F)cc2F)oc2ccc(S(=O)(=O)N3CCOCC3)cc12
  -15% | 5% | -5.3% | /
COc1ccc(N2CCN(C(=O)C3Cc4ccccc4CN3C(=O)c3ccco3)CC2)cc1 (stereo unspecified)
  -8% | / | ? | /
CCN(C(=O)COc1cccc(-n2cnnn2)c1)C1CCS(=O)(=O)C1 (stereo unspecified)
  -15% | / | -0.7% | /

2 compounds drawn at random from those above, as already listed:
Below each SMILES: Rango dissoc inh | miR-21 FLuc | Rango complex inh | GLA inh pH 4.5
COc1ccc(-n2cnnc2SCC(=O)Nc2cccnc2Cl)cc1
  -10% | 1% | 0.9% | 3
Cc1ccc2ncccc2c1NC(=S)NC(=O)c1ccccc1
  7% | 14% | -5.9% | -10

(next part)
Below each SMILES: Rango dissoc inh | miR-21 FLuc | Rango complex inh | GLA inh pH 4.5
CN(Cc1ccccc1)c1nc2c(c(=O)[nH]c(=O)n2C)n1CCSc1nc2ccccc2[nH]1
  24% | -5% | -2.6% | 4
CCc1ccc2nc(N(CCCN(C)C)C(=O)c3ccc(C(=O)c4ccccc4)cc3)sc2c1
  -8% | 18% | 1.0% | /
CCOC(=O)[C@H]1[C@H]2COc3ccc(Br)cc3[C@@H]2N2C(=O)CN(Cc3ccc(Cl)cc3)C(=O)[C@@]12C
  -20% | / | -2.7% | /
CSc1nc2ccccc2cc1/C=C(\C#N)c1cccc(C)c1
  13% | 1% | -2.2% | -12
COc1cccc(CNC(=O)Cn2c(=O)oc3ccccc32)c1OC
  -11% | 4% | -0.3% | 9
O=C(CC(Cc1ccccc1)C(=O)O)Nc1ccc(F)cc1 (stereo unspecified)
  7% | 0% | -0.5% | /
O=C(N/N=C/c1ccc2c(c1)OCCO2)c1ccncc1
  19% | -11% | -1.1% | 8
N#Cc1nc(COc2cccc(Cl)c2)oc1N1CCCC1
  35% | -17% | 4.1% | 8
O=C1CCCN1CCC12CC3CC(CC(C3)C1)C2
  10% | -2% | -1.8% | 5
Cc1cc(NC(=O)c2ccccc2F)n(C(C)(C)C)n1
  -18% | -3% | -1.6% | 4
Cc1cccc(S(=O)(=O)c2c(N)n(/N=C/c3ccco3)c3nc4ccccc4nc23)c1
  ? | 14% | ? | 1
Cc1ncc(CN2CCN(CCc3ccccc3)C(CCO)C2)s1 (stereo unspecified)
  -2% | -1% | -3.7% | 3
Cc1ccc(S(=O)(=O)CCC(=O)NCCN2C(=O)S/C(=C/c3ccc(F)cc3)C2=O)cc1
  0% | -20% | 2.6% | -10

High-throughput results (PubChem BioAssay)
